NS1 function inh = inhibitors of influenza NS1 protein function; Potency, µM (highest dose often 46.1 µM), for inactives: at the highest dose activity, positive = more growth; S. cerevisiae slowed by influenza A NS1, growth recovery by OD600; actives 0.4% (n = 270,000); AID 2326; active means well fitted rising curve with a large enough effect; inconclusive means small, poorly fitted or top-dose-only effect; inactive means no such curve, though single readings can be large or run the other way; note: nearly all actives have a fitted effect of over 50% in size
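Recovery from NS1-induced slow growth read by OD600 in budding yeast switched to galactose assay medium (pH 6.0, -URA) at 1:100 dilution. Compound 23 nl per well; the matching strain lacking NS1 serves as control.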
Cruzain Triton = blocks cruzain activity in presence of Triton detergent. actives 0.43% (n = 200,000). Potency, µM, inactives show max response, negative = inhibition, hits mostly inhibitors. purified cruzain, Z-FR-AMC fluorescence, 0.01% Triton. P25779. AID 1478;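 note: plate controls were neutral wells for no effect and buffer without enzyme for full effect; nearly all actives have a fitted effect of over 40% in size; top concentration of the series not given in the record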
Target sequence (P25779 123-467 limits assumed): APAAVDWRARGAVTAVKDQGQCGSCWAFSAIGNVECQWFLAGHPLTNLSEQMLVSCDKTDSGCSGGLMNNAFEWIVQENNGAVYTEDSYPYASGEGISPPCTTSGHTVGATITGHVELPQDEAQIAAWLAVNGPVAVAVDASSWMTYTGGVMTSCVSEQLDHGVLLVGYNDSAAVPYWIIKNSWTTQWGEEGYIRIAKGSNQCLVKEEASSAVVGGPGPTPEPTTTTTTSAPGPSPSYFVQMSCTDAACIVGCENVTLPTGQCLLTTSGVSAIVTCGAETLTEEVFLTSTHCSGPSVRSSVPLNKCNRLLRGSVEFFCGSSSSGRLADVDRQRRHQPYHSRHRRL
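Steps: dispense cruzain (1.5 nM final) in acetate buffer pH 5.5 with DTT and 0.01% Triton X-100; pin-transfer compounds; incubate 15 min RT; add Z-FR-AMC (2 uM final); read fluorescence every 30 s, using the 60 s intensity change.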
Cruzain inh noDet = cruzain (T. cruzi) inhibition without detergent. P25779. purified cruzain, Z-FR-AMC fluorescence, no detergent. Potency, µM, for inactives: max response, negative = inhibition, hits mostly inhibitors. actives 2.3% (n = 200,000). AID 1476;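 note: plate controls were enzyme without inhibitor for no effect and buffer without enzyme for full effect; nearly all actives have a fitted effect of over 40% in size; top concentration of the series not given in the record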
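Detergent-free condition (0.00005% Triton X-100) in acetate buffer pH 5.5 with DTT. 1.5 nM enzyme and compound were pre-mixed 15 min, then 2 uM Z-FR-AMC substrate added; reaction progress from fluorescence change between first and third reads (60 s).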
LASV entry inh = inhibitors of Lassa virus binding or cell entry; Lassa virus pseudotype entry inhibition, cell reporter; control for the full effect not named in the record; actives 1.2% (n = 300,000); AID 540256; Potency, µM (titrated, usually from 37.9 µM), without a hit: top-dose activity change, negative = inhibition, most hits filed as inhibitors; active means well fitted inhibition curve with a large enough effect; inconclusive means small, poorly fitted or top-dose-only effect, or effect the other way; inactive means flat fitted curve, though single readings scatter; tested in HEK293 cells; note: % is set by controls: 0 for no effect and ±100 for the full control effect; nearly all actives have a fitted effect of over 50% in size; luciferase read-out
SARS PLpro yeast = inhibitors of SARS-CoV papain-like protease in yeast; actives 0.19% (n = 330,000); Potency, µM (titrated, usually from 32.9 µM), for the others: at the highest dose activity, positive = growth rescue; S. cerevisiae expressing SARS-CoV PLpro, growth rescue; control for the full effect not named in the record; active means well fitted rising curve with a large enough effect; inconclusive means small, poorly fitted or top-dose-only effect; inactive means no such curve, though single readings can be large or run the other way; note: 0% is about no effect; nearly all actives have a fitted effect of over 55% in size; growth read by luminescence after 48 h
Marburg entry inh = blocks Marburg virus binding to or entry into cells; actives 1.8% (n = 300,000); Potency, µM (titrated, usually from 37.8 µM), inactives show at the top dose activity change, negative = inhibition, actives largely listed as inhibitors; Marburg virus pseudotyped entry inhibition, cell reporter; control for the full effect not named in the record; about a third of the inactives were read at about 46 µM; active = well fitted inhibition curve with a large enough effect; inconclusive = small, poorly fitted or top-dose-only effect, or effect the other way; inactive = flat fitted curve, though single readings scatter; tested in HEK293 cells; about a fifth of its hits are not listed in these tables; note: % is set by controls: 0 for no effect and ±100 for the full control effect; luciferase read-out
RE007 growth inh = less growth of the S. pombe RE007 Vpr strain | S. pombe RE007 Vpr strain, BacTiter-Glo ATP luminescence, 24 h; control for the full effect not named in the record | Potency, µM (titrated, usually from 92.2 µM), for the others: at the highest dose activity change, negative = less growth | actives 0.21% (n = 360,000) | AID 651644; active = well fitted falling curve with a large enough effect; inconclusive = small, poorly fitted or top-dose-only effect; inactive = no such curve, though single readings can be large or run the other way;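 note: % is set by controls: 0 for no effect and ±100 for the full control effect; nearly all actives have a fitted effect of over 50% in size; the assay follows cell death caused by Vpr and the record does not say whether a fall means rescue or toxicity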
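Fission yeast strain RE007, carrying one chromosomally integrated HIV-1 vpr copy, was seeded at OD 0.01 in PMG+AL medium with 23 nL pinned compound. After 24 h at 30 °C and 99% humidity, viability was read by BacTiter-Glo luminescence.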
StopGo reporter = FMDV 2A StopGo reporter, luciferase signal | human cells with a luciferase reporter of 2A StopGo recoding; control for the full effect not named in the record | Potency, µM (top dose mostly 57.9 µM), without a hit: at the top dose signal change, negative = less light | actives 1.2% (n = 410,000); active = well fitted falling curve with a large enough effect; inconclusive = small, poorly fitted or top-dose-only effect; inactive = no such curve, though single readings can be large or run the other way; tested in HEK293T cells; note: % is set by controls: 0 for no effect and ±100 for the full control effect; nearly all actives have a fitted effect of over 45% in size; luciferase light after 4 h
Starred values were filed as active, the others as inactive; ? = inconclusive; nt = not tested or not shown; & = joins results of further samples; [ ] = dose if it differs, or a comment. Unless noted, calls come from the whole dose curve; as a rule, active = well fitted curve in the direction sought with a large enough effect; inconclusive = small, poorly fitted or top-dose-only effect, or another doubt; inactive = no such curve, though single readings can be large; an effect the other way counts as inactive or inconclusive. Potency is the fitted concentration of half-maximal effect.

SMILES	NS1 function inh	Cruzain Triton	Cruzain inh noDet	LASV entry inh	SARS PLpro yeast	Marburg entry inh	RE007 growth inh	StopGo reporter
COc1ccc(C(=O)C(c2ccccc2)N2CCOCC2)cc1 (stereo unspecified)	-65%	-2.3%	-3%	9%	9%	-3%	-8%	-13%
COC(=O)c1ccc(-c2ccc(F)cc2)nc1C	-8%	-3.8%	-2%	?	-1%	?	-27%	10%
CCOC(=O)N1CCN(C(=S)NC(=O)c2cccc(OC)c2)CC1	nt	nt	nt	4%	5%	6%	32%	-7%
Cc1cc(C)n(-c2nnc3c4ccccc4n(C)c3n2)n1	-30%	nt	nt	0%[46.1 µM]	-3%	27%[46.1 µM]	-21%	-4%
Cc1ccc(NC(=O)C2=C(O)c3ccccc3N(C)S2(=O)=O)cc1	-2%	-1.3%	3%	-2%	-8%	-5%[46.1 µM]	-15%	24%
S=C(NCc1ccccn1)Nc1ccc(Cl)c(Cl)c1	-2%	-9.0%	4%	?	-16%	18%	-13%	61%[activator]
Cn1c(=O)c2c(ncn2CC(=O)N/N=C/c2ccco2)n(C)c1=O	9%	-6.2%	-8%	16%	9%	2%	-17%	-15%
Cc1ccc(-n2c(O)c(/C=C3/C(c4ccccc4)=Nc4ccccc43)c(=O)[nH]c2=O)cc1	-26%	-12%	-5%	-9%	-66%	?	nt	?
CNc1ccc(Br)cc(C(=O)/C=C/c2ccc(OC)cc2OC)c1=O	?	-13%	-29%	-1%	-29%	-7%	-16%	?
COc1ccc(CCNC(=O)CCCCn2c(=O)c3ccccc3n(CC(=O)Nc3ccc(C)cc3C)c2=O)cc1OC	nt	-2.8%	1%	1%[46.1 µM]	nt	?	nt	-14%
COc1ccccc1-c1ccc(SCC(=O)NC2CCCCC2)nn1	-5%	nt	nt	1%	-3%	-22%	6%	2%
COc1ccc(C(=O)Nc2ccnn2C2CCN(Cc3ccncc3)CC2)cc1	3%	nt	nt	-9%	-3%	3%	-7%	-7%
CN(CC(=O)NCc1ccc(Cl)cc1)S(=O)(=O)c1cccc2nsnc12	-11%	-7.5%	2%	6%	-4%	3%	7%	-12%
CCCCn1c(=O)n(CC(=O)Nc2c(CC)cccc2CC)c(=O)c2c1nc(CO)n2CCC	-6%	-0.1%	?	7%	-5%	-1%&-1%[46.1 µM]	12%	-9%
NS(=O)(=O)c1ccc(CCNC(=O)c2ccc(Cl)c(S(=O)(=O)N3CCCCCC3)c2)cc1	nt	nt	nt	?	nt	?	-21%	14µM*
COc1ccc(NC(=S)N/N=C2\CC(C)(C)Oc3ccc(O)cc32)cc1	9%	-14%	12%	-1%	?	-6%	2%	0%
CC1(C)CC(=O)c2c(O)cc(OCC(=O)NCCc3ccc(S(N)(=O)=O)cc3)cc2O1	3%	nt	nt	nt	0%	nt	-1%	0%
CCOc1ccc(NC(=O)CN(C)C(=O)C2CC(=O)N(CCc3ccc(OC)c(OC)c3)C2)cc1OCC (stereo unspecified)	nt	nt	nt	2%	nt	-11%	0%	-7%
CCOC(=O)CC(NS(=O)(=O)c1ccc2[nH]c(=O)sc2c1)c1ccc(C)cc1 (stereo unspecified)	2%	nt	nt	-29%[46.1 µM]	-1%	?	14%	13%
CC1(C)NC(=O)N(CCCCOc2ccc3ccccc3c2Cl)C1=O	-2%	-10%	?	?	-2%	?	-8%	5%
Cc1cccc(NC(=O)c2ccc(S(=O)(=O)C(F)F)cc2)c1C	18%	-2.1%	7%	9%	8%	-1%	16%	-8%
CCOC(=O)CSc1nc2ccccc2c(=O)n1C1CCCC1	-63%	-2.8%	-2%	-10%	-9%	21%	10%	-11%
O=C1[C@@H]2CSCN2C(=O)CN1Cc1c(F)cccc1Cl	0%	nt	nt	-17%[46.1 µM]	0%	1%[46.1 µM]	-4%	-8%
COC(=O)[C@H](C)NC(=O)Nc1ccc(OC(F)(F)F)cc1	-11%	-0.5%	0%	13%	1%	3%	2%	-7%
COc1cccc(NC(=O)CSc2ccc(-c3ccco3)nn2)c1	-34%	nt	nt	-20%	-7%	-29%	-24%	-14%
CCOc1ccc(S(=O)(=O)N(C)CCO)cc1-c1nc2c(C(C)(C)C)nn(C)c2c(=O)[nH]1	5%	-2.1%	?	2.8µM*	2%	-31%&-31%	?	0%
O=C(NCCc1ccccc1)c1cnc2sc(N3CCCC3)nn2c1=O	nt	-5.2%	11%	-15%[46.1 µM]	nt	nt	nt	?
CC(=O)Nc1ccc(C(O)(C(F)(F)F)C(F)(F)F)cc1	nt	nt	nt	-10%	-1%	4%[46.1 µM]	-1%	-3%
COc1ccc(CCn2c(=O)c3cccnc3n(CC(=O)Nc3cccc(C)c3)c2=O)cc1OC	nt	-2.7%	11%	nt	nt	3%[46.1 µM]	nt	12%
COc1ccc(C2C=C(c3ccccc3)Nc3nc(NC(=O)/C=C/c4ccccc4Cl)nn32)cc1 (stereo unspecified)	nt	-7.9%	1%	?	nt	?	nt	?
Cc1nnc(N2C(=O)C(O)=C(C(=O)c3ccco3)C2c2cccc3ccccc23)s1 (stereo unspecified)	3%	nt	nt	10%[46.1 µM]	0%	-3%[46.1 µM]	-11%	-5%
COC(=O)CSC1=C(C#N)C(c2ccc(F)cc2)CC(=O)N1 (stereo unspecified)	-3%	-1.7%	1%	nt	-7%	nt	1%	-23%
COc1ccc2[nH]cc(CCNS(=O)(=O)c3ccc(C)cc3)c2c1	-4%	nt	nt	?	0%	-4%[46.1 µM]	13%	-15%
O=C(N/N=C(\c1ccccc1)c1cccnc1)C(O)(c1ccccc1)c1ccccc1	-36%	-0.2%	9%	-24%	3%	-18%	5%	?
Cc1ccccc1Cn1c2ccccc2c2cnn(CC(=O)NC(C)CCc3ccccc3)c(=O)c21 (stereo unspecified)	nt	-0.5%	-15%	?	nt	6%[46.1 µM]	nt	-20%
CN(NS(=O)(=O)c1ccc(F)cc1)c1ncc(C(F)(F)F)cc1Cl	nt	nt	nt	-12%	-6%	8%[46.1 µM]	8%	-17%
CC(=O)ON1C(C)(C)CC(OC(=O)c2ccccc2)CC1(C)C	-2%	-2.1%	3%	-4%	1%	-18%	-2%	?
CN(CC(=O)Nc1ccc(S(N)(=O)=O)cc1)Cc1ccccc1F	nt	nt	nt	24%[46.1 µM]	-1%	17%[46.1 µM]	5%	-18%
COc1ccc(S(=O)(=O)c2c(SC)nn(CC(=O)Nc3cccc(C)c3C)c2N)cc1	nt	-2.7%	-7%	0%[46.1 µM]	nt	nt	nt	-23%
O=c1[nH][nH]c(C(F)(F)F)c1C=Nc1cccc(Cl)c1	-12%	1.3%	0%	-10%	12%	23%	8%	-26%
CN(C)c1ccc(/C=N/NC(=O)c2sccc2-n2cccc2)cc1	nt	nt	nt	20%	-11%	19%[46.1 µM]	10%	63%[activator]
CCCCOC(=O)C(C#N)c1nc2ccccc2nc1N1CCOCC1 (stereo unspecified)	-35%	-9.2%	9%	-5%	0%	-28%	-1%	?
Cc1cc(C)c(OCCN(C)Cc2ccccc2)c(Br)c1	-4%	nt	nt	?	1%	?	1%	1%
COc1ccc(O)c(/C=N/NS(=O)(=O)c2ccc(C)cc2)c1	-2%	nt	nt	14%[46.1 µM]	-8%	?	9%	8%
CCn1c(=O)c2sccc2n2c(CCCC(=O)Nc3ccc(Oc4ccccc4)cc3)nnc12	nt	-2.1%	?	8%[46.1 µM]	nt	nt	nt	-19%
O=C(Nc1ccccc1)NC1CCCCCCC1	nt	nt	nt	3%	nt	?	-8%	66%[activator]
O=[N+]([O-])c1ccc(S(=O)(=O)N2CCSC2c2ccco2)cc1 (stereo unspecified)	8%	nt	nt	-19%[46.1 µM]	-5%	-18%[46.1 µM]	2%	0%
O=C(O)C1CCCCC1C(=O)Nc1cccc2ccccc12 (stereo unspecified)	-6%	-3.4%	-4%	-18%	-17%	-14%	-24%	10%
Cc1cc(NC(=O)c2cc(-c3ccc(F)cc3)on2)nn1Cc1ccc(Cl)cc1	nt	-1.6%	?	23%[46.1 µM]	nt	17%[46.1 µM]	nt	?
CCN(Cc1cnn(C)c1)C(=O)C1CCC(=O)N(CCc2ccc(OC)cc2)C1 (stereo unspecified)	14%	nt	nt	nt	-1%	nt	1%	10%
Nc1c(C(=O)OCc2ccccc2)c2nc3ccccc3nc2n1Cc1cccs1	9%	2.4%	-24%	3%	-7%	-20%	4%	-21%
CCOc1ccc(C(=O)NCC(=O)N2CCCC2)cc1	17%	nt	nt	1%	-5%	2%[46.1 µM]	0%	-6%
C#CCO[C@@H]1C[C@H](n2cnc3c(=O)[nH]c(NC(=O)C(C)C)nc32)O[C@@H]1CO	-2%	nt	nt	nt	3%	nt	15%	-10%
CCN(CC)CCCNC(=O)c1ccc(OCC(=O)Nc2ccccc2C(F)(F)F)c(OC)c1	5%	nt	nt	?	0%	11µM*	6%	-2%
COc1ccc(C(=O)NC2CCN(CC(=O)NCc3cccc(OC)c3)CC2)cc1	5%	nt	nt	-10%[46.1 µM]	-5%	-5%[46.1 µM]	9%	2%
O=C(NC(NC(=S)Nc1ccc(Cl)cc1Cl)C(Cl)(Cl)Cl)c1cccc([N+](=O)[O-])c1 (stereo unspecified)	8%	-3.3%	-24%	?	-13%	?	-15%	-3%
CCOc1ccc(CN(C)C(=O)NNC(=O)c2ccc(C)cc2)cc1OC	-10%	nt	nt	-10%[46.1 µM]	1%	-13%[46.1 µM]	-7%	4%
Cc1ccc(C(=O)NCC(=O)N2CCN(S(=O)(=O)c3cccs3)CC2)s1	4%	nt	nt	-1%	1%	?	3%	8%
O=c1oc2ccc(F)cc2cc1-c1nc(-c2cccs2)no1	nt	-1.0%	-10%	?	nt	nt	nt	46%[activator]
CCC(c1nnnn1Cc1ccccc1)N(Cc1ccco1)Cc1cc2cc(OC)ccc2[nH]c1=O (stereo unspecified)	-48%	-2.9%	-4%	?	0%	-21%&-21%	2%	?
Cc1ccc2oc(-c3ccc(NC(=O)c4cccnc4)cc3)nc2c1	-3%	-3.0%	?	?	-21%	?	22%	-23%

High-throughput results from PubChem BioAssay.

Rows are unselected, and some 4.7% of all compounds hit somewhere here.
